# StopGo FLuc: FMDV 2A StopGo reporter, firefly signal | HEK cells with a luciferase reporter of 2A StopGo recoding | Potency, µM (titrated, usually from 57.5 µM), for the others: top-dose signal change, negative = less light | actives 0.23% (n = 120,000) | AID 1745856; active = well fitted falling curve with a large enough effect; inconclusive = small, poorly fitted or top-dose-only effect; inactive = no such curve, though single readings can be large or run the other way; also: nearly all actives have a fitted effect of over 60% in size; overnight with compound
# 2A Renilla: lowers the Renilla signal of an FMDV 2A StopGo reporter | HEK cells with a luciferase reporter of 2A StopGo recoding | Potency, µM (doses to about 57.5 µM), for inactives: at the top dose signal change, negative = less light | actives 0.32% (n = 120,000) | AID 1745857; active means well fitted falling curve with a large enough effect; inconclusive means small, poorly fitted or top-dose-only effect; inactive means no such curve, though single readings can be large or run the other way; also: nearly all actives have a fitted effect of over 55% in size; overnight with compound
# The depositor's hits bear a star; u = inconclusive; & = joins results of further samples; [ ] = another dose, or the depositor's remark. % is scaled to controls: 0 for no effect and ±100 for the full control effect; potency is read from the fitted curve at half-maximal effect.
SMILES,StopGo FLuc,2A Renilla
COC(=O)c1ccccc1NC(=O)CC1Sc2ccccc2NC1=O (stereo not given),6%,140%[activator]
COCCOc1ccc(NC(=O)CC(C)(C)C)cc1,0%,2%
CC1=C(c2ccc(C)cc2)S(=O)(=O)N=C1N1CCN(c2ccccc2)CC1,-20%,-15%
CCc1ccc(C(=O)NCc2ccco2)o1,8%,-9%
C=C(C)/C=C1/CN(Cc2ccc3c(c2)OCO3)C(=N)N1C(=O)OCc1ccccc1,6%,13%
Clc1ccc(-c2ncc(-c3ccccc3)o2)cc1,210%[activator],8%
CCOc1cc(C(=O)Nc2nnc3n2CCS3)cc(OCC)c1OCC,2%,-8%
CCCCn1c(NCc2ccc(OC)cc2O)nc2ccccc21,11%,-10%
Cc1ccc(OCC(=O)Nc2c(Cl)ccc3nsnc23)cc1C,9%,-2%
CC(N)c1ccc(O)cc1 (stereo not given),-9%,-5%
CCCCOc1ccc(S(=O)(=O)n2nc(C)c(S(=O)(=O)N3CCC(C)CC3)c2C)cc1,-18%,16%
CCCn1nc(-c2nn3c(-c4cc(F)ccc4F)nnc3s2)cc1C,0%,72%[activator]
COCCn1c(-n2nc(C)cc2C)nc2c1c(=O)n(Cc1ccc(Cl)cc1)c(=O)n2C,-5%,-1%
CCOc1ccc(NC(=O)C(C)Sc2nc3ncccc3o2)cc1 (stereo not given),83%[activator],5%
CCCCNC(=O)C1(NC(=O)Cc2cn(C)c3ccccc23)CCCCC1,-1%,73%[activator]

# Quoted at random: 5 entries already listed.
SMILES,StopGo FLuc,2A Renilla
C=C(C)/C=C1/CN(Cc2ccc3c(c2)OCO3)C(=N)N1C(=O)OCc1ccccc1,6%,13%
CC(N)c1ccc(O)cc1 (stereo not given),-9%,-5%
COCCOc1ccc(NC(=O)CC(C)(C)C)cc1,0%,2%
CCCCNC(=O)C1(NC(=O)Cc2cn(C)c3ccccc23)CCCCC1,-1%,73%[activator]
Clc1ccc(-c2ncc(-c3ccccc3)o2)cc1,210%[activator],8%

# Next structures:
SMILES,StopGo FLuc,2A Renilla
CC(C)(C)c1cc(CCCSCCCc2cc(C(C)(C)C)c(O)c(C(C)(C)C)c2)cc(C(C)(C)C)c1O,16%,22%
CC(C)C(=O)NC(Nc1ccccc1)C(Cl)(Cl)Cl (stereo not given),7%,12%
O=C(CSc1nc2c([nH]c3ccccc32)c(=O)n1-c1cccc(Cl)c1)c1ccccc1,-7%,-5%
CCNc1ccc(S(=O)(=O)N(CC)CC)cc1NC(=O)c1ccccc1F,22%,-1%
CCOc1ccc(-c2cc(OC(=O)c3ccc(F)cc3)c3c(C)oc(C)c3c(=O)c2)cc1,-11%,-17%
Cc1c(-c2ccccc2)c(=O)oc2ccc(OC(=O)N(C)C)cc12,13%,12%
Cc1ccc(N2CCN(C(=O)CCS(=O)(=O)c3cc4c(cc3Cl)NC(=O)CO4)CC2)c(C)c1,u,u
O=C(/C=C/c1cccc(Br)c1)c1ccc2c3c(cccc13)CC2,0%,u
O=C(CN1CCN(c2cnn(-c3ccccc3)c(=O)c2Cl)CC1)Nc1ccc2c(c1)OCCCO2,-14%,-20%
CC(Oc1ccc(C(C)(C)C)cc1)C(=O)Nc1cccc2cccnc12 (stereo not given),17%,9%
COc1ccc(OCc2nc3ccccc3n2C(C)c2ccccc2)cc1 (stereo not given),41%[activator],22%
CCN(CC)C(=O)c1cc(-c2ccc(C)s2)nc2ccccc12,45%[activator],103%[activator]
COC(=O)c1ccc(NC(=O)c2cccn(Cc3ccccc3C)c2=O)cc1,28%,15%
COCCNC(=O)CSc1nc(-c2ccccc2)[nH]c1-c1ccc(OC)cc1,-13%,-11%
CC(C)(C)C1CCC(C(=O)Nc2ccc(Cl)cc2)CC1 (stereo not given),u,u
CC1=NN(c2nc(C)cc(C)n2)C(=O)C1Cc1ccccc1 (stereo not given),128%[activator],-4%
CC(Sc1nc(C2CC2)nc2ccccc12)C(=O)NC(=O)NC(C)(C)C (stereo not given),-14%,-14%
CC(NC(=O)c1cn(C)nc1-c1ccc2c(c1)OCCCO2)C1CC1 (stereo not given),-2%,-1%
CC(NC(=O)c1nn(C)c(=O)c2ccccc12)c1ccc(Br)cc1 (stereo not given),2%,11%
Cc1oc2cc(OCC(=O)NC3CC3)ccc2c(=O)c1-c1ccc(Cl)cc1,-17%,u
Cc1ccc(-n2c(=O)c3sccc3n(CC(=O)N3CCCCC3C)c2=O)c(C)c1 (stereo not given),7%,-4%
COc1cc2cc(CNc3ccc(C)cc3)c(=O)n(CC(=O)Nc3ccc(C(C)C)cc3)c2cc1OC,72%[activator],-9%
O=C(Nc1c(NC2CCCC2)c2ccccc2oc1=O)c1ccc(Cl)cc1,14%,-4%
CC(C)NCc1cccc(OCc2ccccc2)c1,6%,-4%
COc1cc(/C=C2\Oc3cc(OS(C)(=O)=O)cc(C)c3C2=O)cc(OC)c1OC,3%,0%
CSc1ccc(C(C2=C(O)CC(C)(C)CC2=O)C2C(=O)CC(C)(C)CC2=O)cc1 (stereo not given),5%,15%
Cc1ccc(C(=O)NCc2cccs2)cc1N,71%[activator],25%
Cc1ccc(C)c(-c2csc(NC(=O)c3ccccc3SCc3noc(C)n3)n2)c1,1%,-4%
COc1ccccc1CNc1nc(-c2ccco2)nn1C(=O)c1ccccc1[N+](=O)[O-],45%[activator],-8%
COc1ccc2c(CNCc3cccs3)c(C(=O)O)n(Cc3ccc(F)cc3Cl)c2c1,11%,24%
Cc1ccccc1C(=O)Nc1ccc2nc(Nc3cccc(C(F)(F)F)c3)cc(C)c2c1,u,u
CN(CC(=O)N1CCN(c2oc(-c3ccco3)nc2C#N)CC1)Cc1ccc(C(F)(F)F)cc1,u,u
COc1ccc(/C=C/C(=O)OCCN(C)C(C)(C)C)cc1,1%,-8%
COc1ccc(-c2cc(NCc3ccc(C)cc3)n3cnnc3n2)cc1,u,u
COc1cccc(Cn2nnc3c(=O)[nH]c(C4CCCN(C(=O)c5ccccc5Cl)C4)nc32)c1 (stereo not given),8%&-7%,2%&22%
CCc1ccc(C(=O)Nc2cccc(Cl)c2)cc1S(=O)(=O)N1CCOCC1,u,u
CCOc1cc(C=O)c(Cl)cc1OC,49%[activator],41%
O=C(NCc1cccs1)C1CCN(c2nccn3nc(-c4ccccc4)cc23)CC1,-3%,12%
CCCSc1ccc(C(=O)CCN(C)C)cc1,4%,13%
Cc1cc(NC(=O)c2cccn(Cc3cccc([N+](=O)[O-])c3)c2=O)no1,-8%,-14%
C=CCn1c(N2CCN(Cc3cccc4ccccc34)CC2)nc2c1c(=O)[nH]c(=O)n2C,-2%,1%
CC(C)NC(=O)/C(C#N)=C/c1c[nH]c2ccccc12,190%[activator],17%
CCCn1ccc2c(OCC(=O)NCc3ccc(C)cc3)cccc2c1=O,-10%,13%
COc1ccc(/C=C/C(=O)OCCN(C)C)cc1,20%,-9%
CCC1CCC(=C(C#N)C(=O)Nc2ccc(C)cc2)CC1 (stereo not given),0%,27%

# Full records from above. Values in the order: StopGo FLuc, 2A Renilla
# Results for O=C(NCc1cccs1)C1CCN(c2nccn3nc(-c4ccccc4)cc23)CC1 = -3%, 12%
# Results for COc1cccc(Cn2nnc3c(=O)[nH]c(C4CCCN(C(=O)c5ccccc5Cl)C4)nc32)c1 (stereo not given) = 8%&-7%, 2%&22%
# Results for C=CCn1c(N2CCN(Cc3cccc4ccccc34)CC2)nc2c1c(=O)[nH]c(=O)n2C = -2%, 1%

# Later entries.
SMILES,StopGo FLuc,2A Renilla
COc1ccc(S(=O)(=O)N2CCN(c3ccc(Cl)c(Cl)c3)CC2)c2ccccc12,-21%,0%
COc1ccc(C)cc1CN1CCN(C(=O)c2cc(C3CC3)nn2-c2ccccc2)CC1,-17%,-7%
CCOc1ccc(OCC)c(NC(=O)CCc2nc3cccnc3n2-c2ccccc2)c1,1%,6%
COc1ccc(CC(=O)N2CCN(c3nc(-c4ccccc4)no3)CC2)cc1,-27%,u
COc1ccc(C(=O)Nc2nonc2-c2ccc(OC)c(OC)c2)cc1Cl,0%,4%
CCOC(=O)c1cc(S(=O)(=O)N2CCN(c3cc(Cl)ccc3C)CC2)[nH]n1,19%,99%[activator]
COc1ccc(C(=O)NCCc2csc(-c3ccc(Cl)cc3)n2)c(OC)c1,u,u
COc1ccc(C2c3c(n(C)c4ccccc34)C(=O)N2CC(=O)Nc2c(C)cc(C)cc2C)cc1 (stereo not given),-25%,-2%
CCC(C)(C(=O)NC1CCCC1)N(C)C(=O)Cc1c[nH]c2ccccc12 (stereo not given),-15%,-4%
CC(NC(C)c1ccc(Cl)cc1)C(=O)c1c[nH]c2ccccc12 (stereo not given),0%,3%
CCCCNC(=O)c1nn(C)c2c1CSc1ccccc1-2,46%[activator],16%
Fc1ccc(Oc2ccc(CNc3ncccn3)cn2)cc1,0%,7%
CC(=O)NCCNS(=O)(=O)CCC(=O)O,8%,4%
CCCc1nc(Cn2cnc3c2c(=O)n(C)c(=O)n3C)cs1,10µM*,10µM*
Cc1ccc(C2(C)NC(=O)N(Cc3coc(-c4cccs4)n3)C2=O)cc1 (stereo not given),10%,7%

# Overlap with the part before: 6 compounds; new compounds follow.
SMILES,StopGo FLuc,2A Renilla
CC(NC(C)c1ccc(Cl)cc1)C(=O)c1c[nH]c2ccccc12 (stereo not given),0%,3%
CCCCNC(=O)c1nn(C)c2c1CSc1ccccc1-2,46%[activator],16%
Fc1ccc(Oc2ccc(CNc3ncccn3)cn2)cc1,0%,7%
CC(=O)NCCNS(=O)(=O)CCC(=O)O,8%,4%
CCCc1nc(Cn2cnc3c2c(=O)n(C)c(=O)n3C)cs1,10µM*,10µM*
Cc1ccc(C2(C)NC(=O)N(Cc3coc(-c4cccs4)n3)C2=O)cc1 (stereo not given),10%,7%
CC(C)CNc1nc2c(c(=O)n(C)c(=O)n2C)n1Cc1cccc(Br)c1,2%,-7%
Cc1cccc(NC(=O)c2ncoc2-c2cccc(Cl)c2)c1C,0%,-5%
Brc1ccccc1-n1ncc2c1ncn1nc(Cc3ccccc3)nc21,140%[activator],-5%
O=c1c2ccccc2nc(SCc2nc3ccccc3o2)n1CCCO,-7%,-4%
CC(=O)NC(Cc1c[nH]c2ccccc12)C(=O)NCC1(c2ccccc2)CC1 (stereo not given),-4%,7%
C=CCC(CC=C)(CNC(=O)C(=O)Nc1ccc(C(=O)OCC)cc1)c1ccccc1,22%,-5%
O=C(Nc1ccc(F)cc1F)c1cc(C2CC2)nn1-c1ccccc1,5%,-3%
Cc1cnc2c(S(=O)(=O)NCCN3CCOCC3)cccc2c1,-5%,97%[activator]
Cc1cccc(CC(=O)Nc2cccc(-c3cn4cccnc4n3)c2)c1,33%[activator],25%
CN(Cc1ccc(C(=O)NCC(F)(F)F)cc1)C(=O)c1cccc(F)c1,-9%,-3%
CCCOc1ccc(-c2nn(-c3ccccc3)cc2C2NC(=O)NC(C)=C2C(=O)OC)cc1C (stereo not given),0%&27%,6%&-2%
Cc1ccc(C)c(NC(=O)C(=O)NCCCN2CCOCC2)c1,-6%,-6%
CCc1ccc(CN2CCc3nc(Nc4ccc5c(c4)OCCO5)ncc3C2)cc1,-13%,10%
O=c1[nH]c(=O)n(Cc2ccccc2)c2nccc(-c3ccc4c(c3)OCO4)c12,5%,5%
COc1ccc(C(CC(=O)Nc2ccc(C(C)=O)cc2)N2Cc3ccccc3C2=O)cc1 (stereo not given),0%,0%
CCOC(=O)C1CCN(C(=O)c2cc3ccc(OC)cc3[nH]2)CC1,0%,3%
CCc1cccc(C)c1NC(=O)C(CC)n1nc(C)c2c(C)n(-c3ccccc3)nc2c1=O (stereo not given),-23%,5%
O=C(O)CCc1ccsc1,18%,-3%
Cc1oc(-c2ccccc2)nc1CN1CCN(C(=O)c2ccco2)CC1,32%[activator],17%
Cc1cccc2c1-c1sc(C(=O)N3CCN(c4ccc(F)cc4)CC3)cc1CO2,-9%,-9%
C[C@@H](O)CNC(=O)c1nc(-c2ccc(COc3ccc4c(c3)OCO4)cc2)no1,5%,u
CCN(c1cccc(C)c1)S(=O)(=O)c1nnc(NC(=O)C2CCCCC2)s1,-9%,-3%
O=C(O)C(c1c[nH]c2ccc(Cl)cc12)N1CCN(CCNc2cc(=O)oc3ccccc23)CC1 (stereo not given),-5%,-8%
COc1ccc(-c2cn3nc(N4CCCC(C(=O)Nc5cccc(OC)c5)C4)sc3n2)cc1 (stereo not given),-8%,u
CCOc1cccc(/C(O)=C2\C(=O)C(=O)N(CCOC)C2c2cccnc2)c1 (stereo not given),9%,0%
CC(=O)c1ccc(C)cc1OCc1ccccc1C#N,0%,30%
N#C/C(=C\c1c[nH]c2ccccc12)c1ccccc1,91%[activator],28%
CCC1CN(C(=O)N2CCC(C(=O)Nc3cc(C)ccc3C)CC2)c2ccccc2O1 (stereo not given),0%,19%
Cc1ccc(N/C=C/C(=O)c2cccc(Cl)c2)cc1,221%[activator],91%[activator]
N#C/C(=C/c1ccc(-c2cccc(Cl)c2Cl)o1)C(=O)c1ccccc1,2%,-6%[1.06 µM]

# Bioassay records: PubChem, National Center for Advancing Translational Sciences (NCATS)
